gsp agonist: gsp mutant agonism | gsp mutant cells, cAMP HTRF, 30 min; control for the full effect not named in the record | 340,000 tested, 0.13% active | Potency, µM (highest dose often 76.9 µM), for inactives: at the top dose activation (cAMP increase), usual class: activators | AID 624287; active = well fitted activation curve with a large enough effect; inconclusive = small, poorly fitted or top-dose-only effect, or another doubt; inactive = no such curve, though single readings can be large or run the other way; cell line not stated here;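 note: phosphodiesterase inhibitor Ro 20-1724 added with compounds to block cAMP breakdown; potency is the fitted concentration of half-maximal effect; nearly all actives have a fitted effect of over 60% in size; about a fifth of the inactives were tested at one dose only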
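Cells in DMEM/10% FBS with G418 were pretreated with compounds in DMSO plus […] (300 uM stock) for 30 min at 37C. cAMP was measured by HTRF (cAMP-d2 plus anti-cAMP antibody-K) after 30 min at room temperature.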
PINK1 expr mod: modulators of PINK1 expression | AID 624263 | PINK1 immunofluorescence, high-content cytometry, 24 h | 410,000 tested, 0.2% active | Potency, µM (series often up to 76.6 µM), inactives show top-dose activation (PINK1 increase), usual class: activators; active = well fitted activation curve with a large enough effect; inconclusive = small, poorly fitted or top-dose-only effect; inactive = flat fitted curve, though single readings scatter; cell line not stated here;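 note: potency is the fitted concentration of half-maximal effect; % of control where 0% means no effect; nearly all actives have a fitted effect of over 65% in size; a mitochondrial uncoupler was the plate control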
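Stable cell line, 250 cells/well, 12 h attachment; compounds pinned at 5 concentrations, 24 h; CCCP control. Fixed with nuclear dye, primary antibodies 12 h at 10 degrees C, secondary plus cell stain; laser-scanning cytometer read.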
gsp antag: gsp mutant antagonism | 340,000 tested, 0.4% active | Potency, µM (titrated, usually from 76.9 µM), for inactives: at the highest dose activity change, negative = inhibition, usual class: inhibitors | gsp-mutant cells, cAMP HTRF, 30 min; control for the full effect not named in the record; active = falling curve of any shape with a large fitted effect; inconclusive = falling curve, mostly with a smaller effect; inactive = flat or rising curve; cell line not stated here;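 note: intracellular cAMP measured with PDE inhibitor Ro 20-1724 present during compound exposure; potency is the fitted concentration of half-maximal effect; % is set by controls: 0 for no effect and ±100 for the full control effect; nearly all actives have a fitted effect of over 65% in size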
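Cells in G418 medium, seeded 16-24 h, 37C; buffer exchange to DPBS + 1 mM CaCl2, 0.5 mM MgCl2, 0.05% BSA; cpds in DMSO + […] (300 uM stock), 30 min 37C; HTRF cAMP detection.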
ClpP mod: qHTS Assay for Activators of ClpP. ATP-dependent Clp protease proteolytic subunit (Bacillus subtilis (strain 168)), P80244. purified B. subtilis ClpP, FRET peptide cleavage, 20 min. Potency, µM (top dose mostly 57.5 µM), inactives show at the highest dose activity change, negative = active. 340,000 tested, 1.9% active; active = well fitted falling curve with a large enough effect; inconclusive = small, poorly fitted or top-dose-only effect; inactive = no such curve, though single readings can be large or run the other way; note: potency is the fitted concentration of half-maximal effect; the source files actives as falling curves though it sought activators and does not explain the sign; nearly all actives have a fitted effect of over 65% in size; many hits overshoot -100%
Target sequence (P80244 whole entry, looked up): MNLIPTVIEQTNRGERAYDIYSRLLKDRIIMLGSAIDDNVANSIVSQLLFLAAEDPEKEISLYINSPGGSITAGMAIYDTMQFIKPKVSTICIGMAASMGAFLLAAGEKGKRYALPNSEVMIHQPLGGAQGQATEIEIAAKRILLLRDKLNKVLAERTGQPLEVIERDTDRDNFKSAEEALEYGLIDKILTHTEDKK
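Purified B. subtilis ClpP, 10 microg/mL final in Tris/HCl pH8 with KCl, BSA, glycerol and Tween-20, cleaved an Abz/nitrotyrosine-quenched decapeptide. Fluorescence (ex 320, em 430) was read at 0 and 20 min at room temperature. Delta was normalized to 5.8 microM ADEP and DMSO/no-enzyme controls.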
D2 agonist: agonists of human D2 dopamine receptor (beta-arrestin) | DiscoveRx PathHunter D2 beta-arrestin, luminescence, 90 min; 100% = 57 uM dopamine signal | activation, % (no concentration beside the values) | 360,000 tested, 0.084% active | AID 624465; in the data active = activation above about 40%; inconclusive = about 15% to 40%; inactive = below about 15%; note: compound concentration not given in the record; the text of the record calls up to 30% inactive
Target sequence (P14416 whole entry, looked up): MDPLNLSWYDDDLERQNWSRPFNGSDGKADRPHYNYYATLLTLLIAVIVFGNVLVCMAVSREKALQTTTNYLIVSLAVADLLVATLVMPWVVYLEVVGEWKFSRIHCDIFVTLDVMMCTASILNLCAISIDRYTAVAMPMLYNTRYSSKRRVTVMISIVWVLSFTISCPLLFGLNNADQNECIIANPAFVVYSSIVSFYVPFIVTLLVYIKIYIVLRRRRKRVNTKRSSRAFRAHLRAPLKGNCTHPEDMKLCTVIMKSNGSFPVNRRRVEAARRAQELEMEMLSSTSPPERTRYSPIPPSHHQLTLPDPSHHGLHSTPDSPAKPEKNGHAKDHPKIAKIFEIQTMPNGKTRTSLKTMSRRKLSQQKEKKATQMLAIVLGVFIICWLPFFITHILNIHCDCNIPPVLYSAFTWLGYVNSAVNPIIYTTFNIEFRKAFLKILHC
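DiscoveRx PathHunter D2 beta-arrestin cells (2,100/well) attached overnight, then compound-stimulated 90 min at 37 C in HBSS/10 mM HEPES/0.1% Tween-20 buffer; beta-galactosidase complementation read by luminescence after 1 h at ambient temperature. Dopamine 57 uM final (EC100) as control.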
Sfp inh: inhibitors of Bacillus subtilis Sfp phosphopantetheinyl transferase; Biochemical Sfp PPTase activity, qHTS; AID 1490; Q9F4F7; Potency, µM, for inactives: max response, negative = inhibition, hits mostly inhibitors; 310,000 tested, 3.5% active; active = well fitted inhibition curve with a large enough effect; inconclusive = small, poorly fitted or top-dose-only effect, or another doubt; inactive = no such curve, though single readings can be large or run the other way;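 note: the enzyme is Sfp with the accession as filed and its product quenches rhodamine fluorescence; potency is the fitted concentration of half-maximal effect; 0% = enzyme reaction without inhibitor and -100% = no enzyme wells; top concentration of the series not given in the record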
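After 15 min at room temperature with compound, 15 nM Sfp received 5 uM rhodamine-CoA plus 12.5 uM BHQ-2-ybbR (50 mM Hepes pH 7.6, 10 mM MgCl2). Rate came from the fluorescence difference over 30 min, ex 525/em 598 nm.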
Menin MLL FP FL: inhibitors of human menin-MLL interaction, wild-type MLL peptide | Fluorescence polarization, fluorescein-MLL peptide displacement from menin | FP activity change, % at 61.4 µM | 290,000 tested, under 10 active | AID 1766; inconclusive = falling polarisation curve, or a change in total fluorescence; inactive = total fluorescence flat and polarisation flat or rising; no compound was filed as active; the % refers to the polarisation; negative = inhibition;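 note: % of control where 0% means no effect; inhibitors lower the polarisation; unlabelled MLL peptide was the positive control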
* hit, by the source's call; ? = inconclusive; . = not tested or not shown; & = joins results of further samples; [ ] = remark or other dose.

Compound,D2 agonist,Menin MLL FP FL,Sfp inh,PINK1 expr mod,gsp agonist,ClpP mod,gsp antag
c1ccc2c(c1)OCC(CNCC1COc3ccccc3O1)O2 (stereo unspecified),0.9,-6.8,-2%,0.4%,-2%,.,16%
Cc1ccc(CC2C(=O)N(c3ncccn3)C(=O)C2C)cc1 (stereo unspecified),-1.7,-5.9,3%,1.7%,-45%[inhibitor],-0.3%,9%
Cc1ccccc1C1NC(=S)NC2=C1C(=O)CCC2 (stereo unspecified),2.1,3.0,11%,4.8%,-9%,.,-8%
Cc1ccc(C)c(N2CCN(C(=O)c3ccc(N4CCCC4=O)cc3)CC2)c1,1.2,-0.7,4%,2.0%,-73%[inhibitor],0.7%,-17%
Cc1cc(NC(=O)c2cc(Cl)ccc2Cl)no1,-1.2,0.4,2%,0.5%[38.3 µM],-37%[inhibitor],0.8%,-3%
CC(C)(C)C1=NN(C(=O)c2ccccc2)C(O)(C(C)(C)C)C1 (stereo unspecified),0.7,-0.1,16%,1.2%,7%,-4.7%,4%
Fc1cccc(Cl)c1CSc1ccc(-c2ccco2)nn1,-2.3,-0.1,40µM*,2.2%,-7%[15.4 µM],.,-37%
COCCn1c(SCC(=O)N2CCc3ccccc32)nc2c(c1=O)SC(C)C2 (stereo unspecified),3.7,0.8,12%,0.0%,-14%,-0.4%,-11%
Cc1ccc(-c2nnc(SC(C)C#N)n2N)cc1 (stereo unspecified),-2.0,0.7,-1%,1.1%,-14%,1.5%,12%
CCOC(=O)C[N+]1(C)CCN(C(C)=O)CC1,-3.8,-0.4,13%,0.3%,9%,-1.1%,6%
O=C(CSc1n[nH]c(-c2ccco2)n1)Nc1ccccc1,0.9,.,.,6.8%,10%,-1.3%,-5%
Cc1cc(C)n(-c2nc(C)nc3c2cnn3-c2ccccc2)n1,-0.8,-1.2,-9%,0.7%,-22%,-7.7%,7%
CC(CC1CC(C)(C)OC1=O)C(=O)Nc1nncs1 (stereo unspecified),-1.5,5.2,13%,-4.9%[38.3 µM],-10%,0.9%,17%
COc1ccccc1-n1c(SCC(=O)Nc2nnc(C)s2)nc2c(c1=O)SCC2,1.0,1.6,-3%,17%[38.3 µM],-66%[inhibitor],-2.1%,?
CC1=C(C(=O)Nc2cccc(C)c2C)C(c2cccs2)NC(=S)N1 (stereo unspecified),-1.6,-0.4,17%,-0.5%,8%,-0.9%,2%
NC(=O)/C(=C\c1ccccc1)NC(=O)/C=C/c1ccccc1,-1.2,-4.5,-3%,-0.7%,-1%,0.9%,15%
CCn1c(SCC(=O)N/N=C/c2ccccc2OCC(=O)O)nnc1-c1ccc(C)cc1,-1.2,2.4,16%,-0.1%,-67%[inhibitor],-5.9%,12%
CCCCCCCCN1[C@@H](CC(=O)OC)c2cc(C(F)(F)F)ccc2S1(=O)=O,-8.5,.,.,1.5%,?,-2.0%&-3.7%,-1%
COc1c(S(=O)(=O)N2CCN(C)CC2)ccc(Cl)c1Cl,-2.3,4.3,20%,0.8%,-47%[inhibitor],.,18%
Cc1ccc(CN2CC(N3CCC(Cc4ccccc4)CC3)CS2(=O)=O)cc1 (stereo unspecified),-1.7,.,.,8.2%,.,1.1%,.
O=C(Nc1ccc(-c2ccc3nncn3n2)cc1)c1ccc(Br)o1,3.2,0.2,5%,3.0%,-1%,.,-2%
Nc1cnc(Nc2ccc(Br)cc2)nc1N,8.6,0.9,2%,1.3%,-38%[inhibitor],-8.4%,-15%
COC(=O)[C@@]12CCCCN1[C@H](c1ccc(-c3cccc(Cl)c3)cc1)[C@H]1C(=O)N(C)C(=O)[C@H]12,-2.8,.,.,1.6%,3%,-2.4%,-2%
Cc1cccc(N(C(=O)c2sc(C)nc2C)C(C(=O)NCC2CCCO2)c2ccccc2)c1 (stereo unspecified),-4.9,2.2,17%,0.6%,-2%[15.4 µM],-1.7%,6%
Fc1ccccc1Cn1nnc2c(NCc3ccccn3)ncnc21,-2.3,-2.0,6%,0.4%,-1%,-2.1%,5%
CCN(CC)S(=O)(=O)c1cccc(C(=O)OCC(=O)Nc2ccccc2OC(F)F)c1,-3.5,2.5,11%,6.5%[38.3 µM],-38%[inhibitor],0.1%,-5%
Cc1ccc(-c2nc(CS(=O)CC(=O)NC3CCCC(C)C3C)c(C)o2)cc1 (stereo unspecified),-1.3,.,13%,0.1%,14%,-17%,0%
Cc1ccc(C(=O)COC(=O)COc2ccccc2O)cc1C,6.0,.,.,0.1%,16%,0.0%,-1%
O=C(COC(=O)CNC(=O)c1ccccc1F)NCCC1=CCCCC1,-1.1,-0.2,18%,0.7%,11%,-2.0%,-1%
CN(CC(=O)O/N=C(\N)c1ccc(Br)cc1)S(=O)(=O)c1ccccc1,0.1,-4.0,9%,0.5%,14%[15.4 µM],-2.9%,-7%
O=c1ccc2cc(S(=O)(=O)N3CCN(c4ccccc4F)CC3)ccc2[nH]1,-4.1,-4.8,18%,7.4%,-56%[inhibitor],-0.5%,9%
Cc1nc2oc3c(=O)[nH]cnc3c2c2c1COC(C)(C)C2,-0.5,-3.2,7%,0.5%,?,4.3%,-3%
O=C(NC(=S)Nc1nc(-c2ccc([N+](=O)[O-])cc2)cs1)c1ccco1,5.9,.,-17%,14%,0%[15.4 µM],1.5%,-14%
O=c1c2c(nc(NCCO)n1CC1CCCCC1)-c1ccccc1CC21CCCC1,-4.0,-2.3,15%,2.9%,5%,28µM*,2%
O=C(NCC1CCCO1)c1ccc(F)c2ccccc12 (stereo unspecified),-2.9,-4.2,6%,0.3%,0%,-1.6%,11%
O=C(NCc1ccccn1)C1CCCN(Cc2cnn(-c3ccccc3)c2-n2cccc2)C1 (stereo unspecified),-0.7,-0.3,22%,-0.4%,-8%,0.2%,-24%
CCOC(=O)c1sc(NC(=O)CN(CC(C)C)CC(C)C)c(C(=O)OCC)c1C,0.5,0.7,10%,12%,5%,-7.3%,5%
NC(=O)C1CCN(c2nc(-c3ccccc3)nc3ccccc23)CC1,-3.9,2.4,3%,-1.0%,10%,-0.1%,5%
CC(=O)OC(C(=O)Nc1nncs1)c1ccccc1 (stereo unspecified),-4.1,.,.,-0.9%,.,0.7%,.
O=C(Nc1ccc(O)c(-c2nc3ccccc3o2)c1)C1(c2ccc([N+](=O)[O-])cc2)CCCC1,-0.8,-17,-13%,1.2%,6%,-2.7%,11%
Cc1nc2ccccn2c1C(=O)CSc1ccccc1Cl,-1.2,-1.1,-8%,1.1%,14%,-4.5%,-22%
CN(CCOc1ccccc1)C(=O)c1cc([N+](=O)[O-])ccc1N1CCOCC1,-4.4,.,.,3.0%,-13%,?,12%
CC1CCC(NC(=O)CN2CCN(S(=O)(=O)c3ccc(Br)s3)CC2)CC1 (stereo unspecified),-0.3,.,.,4.3%,-27%,-3.5%,.
O=C(O)CC1NC(=O)N(c2ccc(Cl)cc2)C1=O (stereo unspecified),1.4,0.0,9%,0.1%,0%,-2.7%,-1%
O=C(NN1C(=O)/C(=C\c2ccc(O)c([N+](=O)[O-])c2)SC1=S)c1ccccc1Cl,-17,?,-4%,5.2%,6%,1.6%,?
CCCC(=O)Oc1ccc(-c2nccc(C(OC)OC)n2)cc1,2.1,-0.2,18%,-1.4%,4%,.,5%
CC1CN(C(=O)COC(=O)CSc2ccc(C(N)=O)cc2[N+](=O)[O-])CC(C)O1 (stereo unspecified),-1.8,.,.,1.0%,16%,0.8%,8%
O=C(O)C1CCCCC1C(=O)NCCc1ccc(Cl)cc1 (stereo unspecified),-1.6,2.4,20%,-1.3%,-9%,0.5%,-1%
COc1ccccc1C(=O)NCC(=O)NCCSc1ccc(Br)cc1,-2.1,.,.,0.7%,-8%,-5.3%,-10%
CC/C(=N\NC(=O)c1ccncc1)C12CC3CC(CC(C3)C1)C2,-2.2,-4.0,-28%,0.0%,-14%,0.2%,-7%
CCN(c1ccc(OC)cc1)S(=O)(=O)c1nnc(NC(=O)CC(C)C)s1,-5.2,0.8,6%,1.2%,17%,0.7%,-9%
COc1ccc(/C=N/NC(=O)c2cccc([N+](=O)[O-])c2)c2ccccc12,3.2,-4.5,-8%,-2.7%,?,1.7%,-9%
Cc1ccc(C)c(NC(=O)CCOc2ccccc2)c1,6.4,2.5,0%,2.3%&2.0%,?,0.2%&-0.3%,9%
COc1ccc(OC)c(-c2cc(C(=O)O)c3cc4ccccc4cc3n2)c1,-8.1,.,.,1.1%,?,-9.9%,.
COc1ccccc1Oc1ccc2c(c1)C(=O)N(c1ccc(C)cc1)C2=O,-5.7,4.2,4%,11%,2%,-3.8%,-13%
COC(=O)Cc1nc2ccccc2[nH]1,-2.6,1.9,-4%,-1.4%,1%,-2.5%,6%
CCOC(=O)C1=C(O)/C(=C/c2cc(C)n(-c3ccccc3)c2C)N=C1C,0.5,?,?,3.2%,-2%[15.4 µM],.,-13%
Cc1ccc(C)c(N2CCN(C(=O)CCCOc3cc(=O)n(C)c4ccccc34)CC2)c1,0.6,9.2,-32%,-7.3%[38.3 µM],-26%,-1.2%,-27%
COc1ccc(Oc2ncc3nc(CCc4ccccc4)c(=O)n(C[C@H]4CCCO4)c3n2)cc1,.,2.5,18%,-0.4%,.,.,.
CCN(CC(=O)Nc1c(F)cccc1F)C(=O)C1Cc2ccccc2CN1S(=O)(=O)CC (stereo unspecified),0.0,.,.,-1.8%,2%,-4.2%,12%
NC(=NCc1ccccc1)C(N=Nc1ccccc1)C(=O)NCc1ccccc1 (stereo unspecified),-1.2,.,.,-1.9%,-42%[inhibitor],.,-2%
CC(C)c1ccc(NC(=O)C2C3C=CC4(CN(CCCN5CCOCC5)C(=O)C24)O3)cc1 (stereo unspecified),-3.0,3.2,15%,1.8%,0%,-1.6%,16%
